Screening data as filed in PubChem BioAssay.
Autofluor counter = flagged as autofluorescent in microsphere protease counterscreen | compound autofluorescence counterscreen, microsphere flow cytometry; stronger effect = higher value | fluorescence intensity (no concentration beside the values) | actives 3.1% (n = 360,000);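 active = at least 3 SD above the mean of all compounds, about 16000 in these data; inconclusive = too few beads counted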;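 note: 100 nL of 1 mM stock went into each well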
RN4220 kill = S. aureus RN4220 growth inhibition | OD600, 16 h | actives 0.33% (n = 330,000) | inhibition, % (no concentration beside the values);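 active = z-score of -3 or lower and OD600 up to 0.18 on both plates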;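 note: plate controls were untreated cells for no effect and reference antibiotic for full effect; stock transfer was 100 nL into about 80 µL; one replicate is shown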
PrP UTR inh = inhibition of PrP 5' UTR reporter expression; cell-based PrP 5' UTR mRNA reporter, plate reader; inhibition, % (no concentration beside the values); actives 0.35% (n = 340,000);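 active = every replicate at 50% or more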;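 note: 0 = median of the neutral control wells; tested in H4 reporter cells; numbers are from one replicate; inactives centre near -14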
BJeLR viability = BJeLR cell viability loss; BJeLR (HRASV12) viability, CellTiter-Glo ATP luminescence, 48 h; reference of the scale not given here; inhibition, % (test concentration not listed); actives 0.17% (n = 300,000); AID 1554;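 active = replicate mean above 50%; inconclusive = above 50% but judged a plate artefact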;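 note: 50 nL library stock added to about 25 µL; numbers are from one replicate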
Mtb hypoxia rep = reduces hypoxia-regulated biosensor signal in M. tuberculosis | M. tuberculosis hypoxia-regulated fluorescent reporter, fluorescence | fluorescence inhibition, % (concentration not given with the values) | actives 0.1% (n = 300,000) | AID 1159583;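 active = 35 to 45% if threefold the growth effect, above 45% if 1.5-fold the growth effect; inactive = the rest, general growth blockers included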;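 note: wells of about 50 µL received 100 nL stock; 0% = vehicle wells and 100% = reference inhibitor wells; whole bacteria with a GFP reporter of the hypoxia response; strong numbers were not always called active; many hits fall short of the cut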
ugtP null kill = kills S. aureus RN4220 lacking UgtP | S. aureus RN4220 ugtP deletion, OD600 growth, 16 h; some inactives read as strong as hits | growth inhibition, % (test concentration not listed) | actives 0.54% (n = 330,000) | AID 1259309;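 active = z-score under -3 and OD600 up to 0.15 on both plates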;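 note: plate controls were untreated wells for no effect and antibiotic for full effect; wells of about 80 µL received 100 nL stock; the first replicate is given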
Mtb hypoxia rep growth = second read-out of Mtb hypoxia rep, no call of its own (marks repeat the call); growth inhibition, %; measured here: M. tuberculosis growth (absorbance);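 0% = vehicle and 100% = reference antibiotic; read after six days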
The depositor's hits bear a star; ? = inconclusive; / = not tested or not shown; & = joins results of further samples.

SMILES	Autofluor counter	RN4220 kill	PrP UTR inh	BJeLR viability	Mtb hypoxia rep	Mtb hypoxia rep growth	ugtP null kill
Cc1ccc(-c2nnn(CC(=O)NCCc3ccc4c(c3)OCO4)n2)o1	3283	-2.8	-2	-5	/	/	2
O=C(N/N=C/C1CC2CCC1C2)C1CC1 (stereo unspecified)	5385	/	-31	-9	/	/	/
CCC(=O)NC(=S)Nc1ccc(S(=O)(=O)NC2CCCCC2)cc1	5411	/	-22	-3	/	/	/
CC(C(=O)NCC1CC1)C1C[C@@]1(C)C(NC(=O)OCc1ccccc1)c1ccccc1 (stereo partly specified)	/	0.8	/	/	9	14	2
CCS(=O)(=O)Nc1cc(OC)c(OC)cc1Cc1nccc2cc(OC)c(OC)cc12	4914	2.4	-5	-4	-4	2	14
O=C(COc1ccc(S(=O)(=O)N2CCCCC2)cc1)N1CCCCCC1	2107	2.0	-12	-1	/	/	-2
CCCCc1nc(N)c(C#N)c(-c2ccco2)c1CCC	9508	4.2	9	-5	2	1	6
Cc1cccc(C2=NCC(=O)N(CC(=O)NCc3ccco3)c3sc4c(c32)CCCC4)c1	5395	5.7	-22	8	9	4	4
Cc1cc(C(=O)CSc2ncccn2)c(C)n1-c1cccc(F)c1	10861	/	-48	10	/	/	/
COc1ccc(S(=O)(=O)N2CCCCC2)cc1NC(=O)CN(C)C1CCCCC1	4273	4.2	-21	7	8	2	6
CC(C)Cc1csc(NC(=O)c2ccccc2Cl)c1C(=O)O	2461	14	-19	-4	5	-3	-20
O=C(Nc1ccc2c(c1)OCCO2)C(=O)c1c[nH]c2ccccc12	5855	4.5	-47	34	4	-5	-7
CC1=[N+]([O-])C(C)(C)C(c2ccc(Br)cc2)=[N+]1[O-]	2052	4.5	-7	-3	1	1	4
O=C(NC1CCCC1)C(c1ccncc1)N(C(=O)c1csnn1)c1cccc(Cl)c1 (stereo unspecified)	3741	-1.8	-30	3	0	18	3
CCS(=O)(=O)N1Cc2ccccc2CC1C(=O)Nc1nc2ccc(F)cc2s1 (stereo unspecified)	9351	-1.4	-69	-2	8	2	-10
CC(=O)Nc1cccc(-c2csc(Nc3ccc(C)cn3)n2)c1	1963	18	-68	-3	-1	7	3
NC1=NC(=O)/C(=C/c2cn(CCC(=O)O)nc2-c2ccc(F)cc2)S1	2775	1.2	-1	-9	10	4	2
COc1ccc(NC(=O)c2sc(SCc3ccccc3)nc2N)cc1	2909	2.7	-8	14	8	12	4
CC1(NC(=O)Cn2cc(C(F)(F)F)ccc2=O)CCS(=O)(=O)C1 (stereo unspecified)	/	1.6	-8	/	6	-2	2
Cc1cc2nccnc2cc1C	3759	4.4	-15	/	20	13	-4
Nc1nc(SCc2ccccc2)c2ncn(C3OC(CO)C(O)C3O)c2n1 (stereo unspecified)	3631	-0.5	-26	/	19	7	-5
Cc1coc2c(C)c3oc(=O)c(CCC(=O)NCCC(=O)O)c(C)c3cc12	3846	6.8	-9	0	-5	-8	0
CCN(CC)CCNS(=O)(=O)c1ccc(Cl)cc1	9442	2.3	-14	-6	7	10	2
CC(=O)Nc1ccc(S(=O)(=O)N2CCN(C(=O)N3CCOCC3)CC2)cc1	5469	8.5	-8	-4	/	/	16
CC(C)CNC(=S)NC(=O)c1ccc([N+](=O)[O-])cc1	2718	-8.4	-13	3	/	/	-1
CC(NC(=O)c1ccc(C(C)(C)C)cc1)C(=O)O (stereo unspecified)	21690*	2.9	-24	2	5	7	2
COc1ccc(Nc2nc3c(C)cccc3cc2C#N)cc1	2192	1.6	-13	0	1	-4	-5
Cc1ccc2[nH]c(=O)c(CN(C)C(=O)c3cccs3)cc2c1	3704	9.0	-20	-3	3	9	-6
O=C(NC(=S)Nc1ccccc1)c1ccc(Br)o1	2209	-0.2	-75	6	3	10	5
CC(=O)Oc1ccc2occ(C(=O)c3ccccc3)c2c1	/	3.7	/	3	1	-2	-5
CCn1cc(C(=O)OCC(=O)N(C)Cc2ccccc2)c(=O)c2ccc(C)nc21	4128	/	-14	-3	/	/	/
CCOC(=O)N1CCN(C(=O)COC(=O)c2cc(Cl)c(O)c(Cl)c2)CC1	3878	-1.5	1	4	18	11	-1
COc1ccc(NC(=O)c2ccco2)cc1NC(=O)c1cccs1	10973	8.3	-19	-5	1	3	3
Cc1csc(NC(=O)c2cc(C)nc3ccccc23)n1	3438	3.3	-14	3	1	-1	6
Cc1cccc(NC(=O)c2ccc(-n3cccn3)c([N+](=O)[O-])c2)c1	3292	4.0	-13	9	11	9	-4
COc1ccc2c(c1)C1NC(=S)N[C@@](C)(O2)C1C(=O)Nc1ccccc1 (stereo partly specified)	2428	-1.1	-20	5	/	/	-2
CC(=O)c1ccccc1OC(=O)CCN1C(=O)C2C3C=CC(C4CC34)C2C1=O (stereo unspecified)	2681	4.9	-18	2	5	3	6
NC(=O)c1ccsc1NC(=O)COC(=O)/C=C/c1ccc([N+](=O)[O-])cc1	4990	3.0	-13	-11	-11	6	6
O=C(CSc1nc(=O)n2ccccc2n1)N1N=C(c2cccs2)CC1c1ccc(F)cc1 (stereo unspecified)	?	-1.0	-5	13	3	0	-2
CCCC[C@@H]1CN=C(N)N1CCc1cccc(F)c1	3856	/	-12	4	/	/	/
COc1ccccc1CNCc1cc(OC)c(OC)cc1OC	10934	5.3	-27	7	3	4	-5
N=c1c2c3c(sc2ncn1N)CCCCC3	19395*	3.2	-25	4	4	10	-10
N#C/C(=C/c1ccc(O)c(O)c1)C(=O)NCc1ccc(Cl)cc1	4825	-2.8	-12	0	-3	-8	-21
CC(=O)Nc1nc(C)c(Oc2cccc(C(F)(F)F)c2)c(=O)[nH]1	4178	3.0	0	6	11	0	8
CS(=O)(=O)Nc1cccc(C2=NN(C(=O)c3ccccc3)C(c3cccs3)C2)c1 (stereo unspecified)	3650	4.2	-9	-3	7	4	11
CCOc1ccc(C2N(c3cc(C)on3)C(=O)C3CCCN32)cc1OC (stereo unspecified)	4390	9.6	-15	6	7	3	4
CC1(C)Cc2c(cnn2-c2ccc(F)cc2)C(NC(=O)CCN2CCCC2=O)C1 (stereo unspecified)	5616	4.5	-20	0	-4	-6	3
Cc1cc(Cl)cc(Cl)c1OCCN1CCCC1	3398	4.0	10	5	7	-3	9
C=CC[n+]1c(-c2ccccc2)csc1NC(C)(C)C	4103	3.0	-67	-1	4	3	5
Cn1c(O)c(C=Nc2ccc3c(c2)CCC3)c(=O)n(C)c1=O	3364	3.9	-46	-6	16	10	-3

Three of the compounds above, field by field.
N=c1c2c3c(sc2ncn1N)CCCCC3
- Autofluor counter: 19395*
- RN4220 kill: 3.2
- PrP UTR inh: -25
- BJeLR viability: 4
- Mtb hypoxia rep: 4
- Mtb hypoxia rep growth: 10
- ugtP null kill: -10

N#C/C(=C/c1ccc(O)c(O)c1)C(=O)NCc1ccc(Cl)cc1
- Autofluor counter: 4825
- RN4220 kill: -2.8
- PrP UTR inh: -12
- BJeLR viability: 0
- Mtb hypoxia rep: -3
- Mtb hypoxia rep growth: -8
- ugtP null kill: -21

CC(=O)Nc1nc(C)c(Oc2cccc(C(F)(F)F)c2)c(=O)[nH]1
- Autofluor counter: 4178
- RN4220 kill: 3.0
- PrP UTR inh: 0
- BJeLR viability: 6
- Mtb hypoxia rep: 11
- Mtb hypoxia rep growth: 0
- ugtP null kill: 8

(listing goes on)
SMILES	Autofluor counter	RN4220 kill	PrP UTR inh	BJeLR viability	Mtb hypoxia rep	Mtb hypoxia rep growth	ugtP null kill
CCNC(=O)N1C(=O)C2(OCCO2)c2ccccc21	2458	3.8	-16	7	/	/	-5
CCOC(=O)CC(=O)Nc1ncnc2c1C(c1ccccc1)c1c(ccc3ccccc13)O2 (stereo unspecified)	4029	6.0	-17	/	20	11	-18
Cc1cccc2sc(N(CCN(C)C)C(=O)C3CCN(S(=O)(=O)c4cccs4)CC3)nc12	?	0.6	-5	4	12	-4	6
O=C1NC(Nc2nc3ccccc3s2)(C(F)(F)F)C(=O)N1C1CCCCC1 (stereo unspecified)	8180	-4.1	-4	3	-7	-15	25
O=C(COc1ccccc1)N=C1SC2CS(=O)(=O)CC2N1c1ccccc1F (stereo unspecified)	5934	2.6	-10	3	7	-1	7
Cc1cc(=O)oc2cc(OCC(=O)N3C[C@H]4C[C@@H](C3)c3cccc(=O)n3C4)ccc12	5029	-0.1	-7	3	/	/	28
Cc1ccc(CNC(=O)c2ccc(Cn3nc(C)c(Cl)c3C)o2)cc1	2686	-0.6	-16	-4	4	6	-17
CCN(CC)c1ccc(NC(=O)CCS(=O)(=O)c2ccc(Br)cc2)c(C)c1	3803	9.5	-12	2	-3	-2	10
C=CCn1c2ccccc2c2nnc(SCC(=O)NC(C(=O)OC)C(C)C)nc21 (stereo unspecified)	9301	-0.6	-15	6	16	8	3
CC12CCC(O)CC1=CCC1C2CCC2(C)C(c3ccn[nH]3)CCC12 (stereo unspecified)	3735	-0.8	9	/	-6	5	98*

Brought forward from above: 7 compounds; new compounds follow.
SMILES	Autofluor counter	RN4220 kill	PrP UTR inh	BJeLR viability	Mtb hypoxia rep	Mtb hypoxia rep growth	ugtP null kill
O=C1NC(Nc2nc3ccccc3s2)(C(F)(F)F)C(=O)N1C1CCCCC1 (stereo unspecified)	8180	-4.1	-4	3	-7	-15	25
O=C(COc1ccccc1)N=C1SC2CS(=O)(=O)CC2N1c1ccccc1F (stereo unspecified)	5934	2.6	-10	3	7	-1	7
Cc1cc(=O)oc2cc(OCC(=O)N3C[C@H]4C[C@@H](C3)c3cccc(=O)n3C4)ccc12	5029	-0.1	-7	3	/	/	28
Cc1ccc(CNC(=O)c2ccc(Cn3nc(C)c(Cl)c3C)o2)cc1	2686	-0.6	-16	-4	4	6	-17
CCN(CC)c1ccc(NC(=O)CCS(=O)(=O)c2ccc(Br)cc2)c(C)c1	3803	9.5	-12	2	-3	-2	10
C=CCn1c2ccccc2c2nnc(SCC(=O)NC(C(=O)OC)C(C)C)nc21 (stereo unspecified)	9301	-0.6	-15	6	16	8	3
CC12CCC(O)CC1=CCC1C2CCC2(C)C(c3ccn[nH]3)CCC12 (stereo unspecified)	3735	-0.8	9	/	-6	5	98*
Cc1ccc(S(=O)(=O)NCCN2CCN(S(=O)(=O)c3ccccc3Cl)CC2)cc1	6548	5.1	-14	/	1	-8	9
CSCC[C@H](N)C(=O)NC[C@H]1CC[C@H](C(=O)N[C@@H](Cc2ccccc2)C(=O)O)CC1	2942	/	-14	10	/	/	/
COC1CCCN(Cc2cn(C)nc2-c2ccc(Oc3ccccc3)cc2)C1 (stereo unspecified)	4563	12	-5	2	12	17	4
Cc1cc(C)nc(Nc2ccc(Cl)cc2C)n1	3828	3.5	-17	-7	5	-4	-2
COc1ccccc1C1NC(=O)NC(C)=C1C(=O)OCc1ccccc1 (stereo unspecified)	3368	0.3	-6	-7	-2	-4	2
COc1ccc2cc(C(=O)N3CCCC(Nc4ccc(F)cc4)C3)n(C)c2c1 (stereo unspecified)	5720	1.7	-9	-2	11	15	-1
COc1ccccc1CN1CCCCCC1	3630	-4.7	8	3	2	4	-1
COc1ccc2c(c1)CC/C(=C/c1cc(OC)c(OC)c(OC)c1)C2=O	5436	8.2	-7	11	8	10	8
O=C(Nc1ccc(Oc2ccc(Br)cc2)cc1)C1=CC=CN2CCS(=O)(=O)N=C12	3808	-0.9	-27	/	4	-4	6
COc1ccc(Cl)cc1NC(=O)CC(C)=NNC(=O)Cc1ccccc1	/	2.9	/	/	4	5	8
O=C1c2ccccc2C(=O)N1CCc1nc(-c2ccccn2)no1	21427*	3.3	1	-10	-6	0	1
O=C(O)CCCCCN=C1CCc2ccccc2N1	11912	2.1	-2&-11	5	2	7	-2
COc1ccc(C(=O)C2CCCN(C(=O)c3ccnn3C)C2)c(C)c1 (stereo unspecified)	4303	4.1	-16	-10	5	-4	13
N#Cc1cccc(CN2CCC(=O)N([C@H](CO)Cc3ccccc3)CC2)c1	4057	/	-13	-18	/	/	/

A few values from above:
O=C(O)CCCCCN=C1CCc2ccccc2N1 in RN4220 kill → 2.1
N#Cc1cccc(CN2CCC(=O)N([C@H](CO)Cc3ccccc3)CC2)c1 in BJeLR viability → -18

An excerpt of these results, comma-delimited:
SMILES,Autofluor counter,RN4220 kill,PrP UTR inh,BJeLR viability,Mtb hypoxia rep,Mtb hypoxia rep growth,ugtP null kill
N#Cc1cccc(CN2CCC(=O)N([C@H](CO)Cc3ccccc3)CC2)c1,4057,/,-13,-18,/,/,/
O=C(O)CCCCCN=C1CCc2ccccc2N1,11912,2.1,-2&-11,5,2,7,-2
